ugtP null kill: growth inhibition of S. aureus ugtP deletion strain. S. aureus RN4220 ugtP deletion, OD600 growth, 16 h; some inactives read as strong as hits. growth inhibition, % (no concentration beside the values). 330,000 tested, 0.54% active;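 active = z-score under -3 and OD600 up to 0.15 on both plates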;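 also: plate controls were untreated wells for no effect and antibiotic for full effect; wells of about 80 µL received 100 nL stock; the first replicate is given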
PrP UTR inh: inhibition of PrP 5' UTR reporter expression | cell-based PrP 5' UTR mRNA reporter, plate reader | inhibition, % (test concentration not listed) | 340,000 tested, 0.35% active;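 active = every replicate at 50% or more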;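 also: 0 = median of the neutral control wells; tested in H4 reporter cells; numbers are from one replicate; inactives centre near -14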
Bead autofluor: flagged as autofluorescent in microsphere protease counterscreen; compound autofluorescence counterscreen, microsphere flow cytometry; active compounds read high; fluorescence intensity (concentration not given with the values); 360,000 tested, 3.1% active; AID 624483;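 active = at least 3 SD above the mean of all compounds, about 16000 in these data; inconclusive = too few beads counted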;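 also: 100 nL of 1 mM stock went into each well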
Sa RN4220 lethal: kills Staphylococcus aureus RN4220; 330,000 tested, 0.33% active; inhibition, % (no concentration beside the values); S. aureus RN4220 growth, OD600, 16 h; AID 1259311;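 active = z-score of -3 or lower and OD600 up to 0.18 on both plates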;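 also: plate controls were untreated cells for no effect and reference antibiotic for full effect; stock transfer was 100 nL into about 80 µL; one replicate is shown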
Mtb hypoxia inh: inhibitors of hypoxia-regulated fluorescent reporter in Mycobacterium tuberculosis | 300,000 tested, 0.1% active | M. tuberculosis hypoxia-regulated fluorescent reporter, fluorescence | fluorescence inhibition, % (concentration not given with the values);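 active = 35 to 45% if threefold the growth effect, above 45% if 1.5-fold the growth effect; inactive = the rest, general growth blockers included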;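 also: wells of about 50 µL received 100 nL stock; 0% = vehicle wells and 100% = reference inhibitor wells; whole bacteria with a GFP reporter of the hypoxia response; strong numbers were not always called active; many hits fall short of the cut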
BJeLR viability: kills HRASV12-expressing BJeLR cells. 300,000 tested, 0.17% active. inhibition, % (no concentration beside the values). BJeLR (HRASV12) viability, CellTiter-Glo ATP luminescence, 48 h; reference of the scale not given here;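 active = replicate mean above 50%; inconclusive = above 50% but judged a plate artefact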;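 also: 50 nL library stock added to about 25 µL; numbers are from one replicate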
Mtb hypoxia inh growth: recorded beside Mtb hypoxia inh, whose call it bears; growth inhibition, %; measured here: M. tuberculosis growth (absorbance);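 0% = vehicle and 100% = reference antibiotic; read after six days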
An asterisk follows results filed as active; ? = inconclusive; / = not tested or not shown.

molecule	ugtP null kill	PrP UTR inh	Bead autofluor	Sa RN4220 lethal	Mtb hypoxia inh	Mtb hypoxia inh growth	BJeLR viability
Cc1sc2ncn(/N=C/c3ccco3)c(=O)c2c1C	/	-32	4928	/	/	/	2
Cc1ccc(NC(=O)C2C3/C=C\CCCCC32)cc1 (centres undefined)	-9	-46	2368	4.0	22	24	4
CCn1cc(C(=O)O)c(=O)c2cc(S(=O)(=O)N3CCCCCC3)ccc21	4	-21	4046	5.5	0	3	2
CCOc1ccc(N2CC(C(=O)NC3CCCCCC3)CC2=O)cc1 (centres undefined)	5	-15	2924	3.6	10	-2	-12
Cc1ccccc1OCCCCCn1ccnc1	-1	-1	24874*	-1.4	22	17	-2
O=C(NCCO)c1cc(-c2cc(C(=O)NCCO)c3ccccc3n2)nc2ccccc12	8	-34	3286	8.6	10	-3	-3
COc1cccc(-c2nc(CS(=O)CC(=O)NCc3ccccc3Cl)c(C)o2)c1 (centres undefined)	-3	-14	5182	-8.1	2	9	-8
CC(C)[C@H](NC(=O)c1ccccc1)C(=O)OCC(=O)/C=C1/N(C)c2ccccc2C1(C)C	/	-14	4459	/	/	/	-2
Clc1ccc(Cc2nn3c(Cn4nnc5ccccc54)nnc3s2)cc1	-1	-23	10230	3.3	-3	7	-5
Cc1cccc2c(=O)c(-c3ccc4c(c3)OCO4)c(NC(=O)c3ccco3)oc12	12	-25	5599	6.4	-1	5	-1
Cc1cc(C)nc(NC(=NCCc2c[nH]c3ccccc23)NC(=O)Nc2ccccc2)n1	-32	-17	2407	-0.6	0	-2	4
N#Cc1cccc2c1-c1ccccc1C2=NNC(N)=S	9	/	/	-2.3	5	-6	/
O=C(CSc1nc2ccc(Nc3nc(N4CCOCC4)nc(N4CCOCC4)n3)cc2s1)N1CCOCC1	-21	-29	2115	-0.4	-3	2	16
COC(=O)CNC(c1ccccc1Cl)c1cc(Br)ccc1NS(=O)(=O)c1ccc(C)cc1 (centres undefined)	-10	-3	10538	-5.4	-8	-10	1
COC(=O)c1[nH]c2ccc(C)cc2c1NC(=O)CN1CCN(c2ccccc2)CC1	-6	-4	4252	2.7	0	9	1
COc1ccc(Cl)cc1N(CC(=O)Nc1ccccc1C(=O)NCc1ccco1)S(C)(=O)=O	12	-7	5223	4.6	7	-1	6
CC(C)OP(=O)(O)NC(=O)c1ccccc1	1	-12	5333	5.5	8	9	16
c1ccc(-c2cnc(CSc3ncnc4sccc34)o2)cc1	20	-2	4424	8.6	8	10	-2
CC(CCc1ccccc1)NC(=O)c1cnc(Cl)c(Cl)c1 (centres undefined)	-1	-18	4270	-3.3	23	29	-3
COc1ccc(NC(=O)CN2CCN(CC(=O)Nc3ccccc3Cl)CC2)cc1Cl	11	-15	2462	1.6	/	/	13
Cc1noc(C)c1S(=O)(=O)NC1CCCc2ccccc21 (centres undefined)	-3	-9	4569	6.1	/	/	-1
COc1ccccc1/C=C/C(=O)OCCN1C(=O)c2ccccc2C1=O	4	-3	4034	5.4	-1	-3	-12
Cc1[nH]n(C(N)=S)c(=O)c1N=Nc1ccc([N+](=O)[O-])cc1Cl	-4	-48	5066	-4.5	-1	3	2
Cc1ccc(NC(=O)CC(O)(C(F)(F)F)C(F)(F)F)cc1	-6	-17	22690*	3.6	1	-1	6
Cc1c(C)c2ccc(OCC(=O)NCCc3c[nH]c4ccccc34)c(C)c2oc1=O	13	-5	4181	-5.8	/	/	0
C=CCNC(=S)NC(=O)c1csc([N+](=O)[O-])c1	10	-1	3486	22	17	19	-3
Cc1cc(C2C(=O)c3ccccc3C2=O)c(C)c(C)c1C	-4	-21	4148	7.1	-5	3	-2
O=C(NCc1ccccn1)c1cc(Br)ccc1Cl	0	-16	3572	5.2	5	4	3
CSc1ccccc1N=Cc1nc(-c2ccccc2)oc1O	-9	-46	3101	-9.9	-2	0	5
COc1cc(-c2cc(=O)c3c(O)cc(O)cc3o2)ccc1O	2	/	5203	4.6	/	/	-8
COc1ccc(C2CC(c3ccccc3)=NN2C(=O)COC(=O)c2cccc(S(=O)(=O)N3CCOCC3)c2)cc1 (centres undefined)	-15	-8	2146	7.7	15	10	-5
Cc1ccc(CNc2cc(C(=O)O)ccc2Cl)s1	-7	-17	3826	3.3	0	17	-5
N#CC1C(=N)Cc2ccccc2-c2ccccc21 (centres undefined)	5	-5	4279	6.6	16	14	/
Cc1cc2nc(SCC(=O)Nc3nonc3C)c3c(c2cc1C)CCCC3	3	-8	22694*	7.8	11	2	-4
CCOC(=O)Cc1cc(=O)[nH]c(N=C(N)Nc2ccc(OC)cc2)n1	10	/	/	3.7	20	4	/
COc1ccc2ccccc2c1C=NNC(=O)c1ccc(C)s1	0	/	/	4.3	6	8	/
O=C(CN1CCN(Cc2ccccc2F)CC1)Nc1ccccc1Cl	3	-10	3580	4.0	11	4	-6
CCOC(=O)/C(C#N)=C(/C)c1ccc(OC)cc1	3	-8	3552	2.1	/	/	2
O=[N+]([O-])c1ccc(C(=S)N2CCCC2)cc1	9	-12	4470	4.4	11	2	-4
OCCNc1nc2ccccc2n1CCN1CCCCC1	2	-34	4938	4.9	/	/	10
Cc1ccccc1Nc1ncnc2c1cnn2C	3	-8	3740	1.8	-2	-3	-16
CCOc1cc(C(=O)NC(C)Cc2cccs2)cc(OCC)c1OCC (centres undefined)	2	-4	2585	5.2	1	-8	-4
O=C(NN=Cc1ccccc1O)c1cccc2ccccc12	4	/	/	6.1	1	-1	/
COc1ccc(Cl)cc1S(=O)(=O)N1CCN(C(=O)c2n[nH]c(=O)c3ccccc23)CC1	-1	-5	4090	2.2	5	-14	/
C=C(C)C1CC=C(C)/C(=N/NC(=O)COc2ccccc2C)C1 (centres undefined)	/	-4	2174	/	/	/	1
O=C(NCCc1ccc(F)cc1)c1ccncc1	9	0	?	2.1	7	-8	9
C#CCOn1c(-n2nc(C)cc2C)nc2ccccc2c1=O	1	-17	3659	3.7	8	6	-6
Cc1cc(S(=O)(=O)NCC(C)C)ccc1OCC(=O)NCc1ccccn1	-15	-17	21787*	1.8	2	9	-1
O=C(COc1ccccc1)N1CCN(C(=O)c2ccco2)CC1	-5	-13	6821	3.1	4	10	8
COc1cc(C)cc(CN2CCC(Cc3ccccc3)CC2)c1O	6	-20	4306	-2.2	-2	3	-2

Carrying on.
molecule	ugtP null kill	PrP UTR inh	Bead autofluor	Sa RN4220 lethal	Mtb hypoxia inh	Mtb hypoxia inh growth	BJeLR viability
O=C1CN=C(c2ccccc2)c2cc(Cl)ccc2N1	9	6	5201	4.7	/	/	/
Cc1ccc(S(=O)(=O)NCCC(c2ccccc2)c2ccccc2)cc1C(=O)O	7	-23	3790	20	0	6	-3
COc1ccccc1-c1cc(C(=O)N2CCOCC2)no1	1	-47	5821	0.6	2	1	0
O=C(Nc1ccccc1NC(=O)c1c(F)c(F)c(F)c(F)c1F)c1c(F)c(F)c(F)c(F)c1F	-2	-16	3676	4.8	13	13	-12
O=C(O)c1ccccc1SC1CC(=O)N(c2cccc3ccccc23)C1=O (centres undefined)	-11	-29	3474	4.4	6	4	/
Cc1ccc(N2C(=O)CC(Cc3cccc(C)c3)C2=O)cc1 (centres undefined)	7	-17	4542	5.5	8	-2	2
CCN1C(=O)C(CC(=O)Nc2ccccc2Cl)N(NC(=O)c2cccc(F)c2)C1=S (centres undefined)	1	-11	5091	-0.7	1	10	-3
C#CCOCCOCCOCCNc1nc(N2CCN(C(=O)[C@H]([C@@H](C)CC)n3cc([C@@H](N)Cc4ccc(O)cc4)nn3)CC2)nc(N2CCN(C(=O)[C@H](Cc3ccc(O)cc3)n3cc([C@@H](N)CC(C)C)nn3)CC2)n1	/	-10	4534	/	/	/	1
Cc1cc(C)c(NC(=O)CCCCCNC2CCCCC2)c(C)c1	/	-12	3957	/	/	/	11
Cc1c(C(=O)Nc2ccccc2F)sc2nc3n(c(=O)c12)CCC3	-1	-41	5854	3.2	-1	12	-3
Cc1ccc2c(c1)c(C)c(C)n2CC(O)Cn1nnc2ccccc21 (centres undefined)	-11	-16	4833	6.8	-9	-4	-6
Cc1ccc(Nc2ncnc(Cl)c2N)cc1	-2	-25	3495	2.8	5	2	/
O=C(NCCS(=O)(=O)N1CCN(c2ccccc2F)CC1)c1c(F)cccc1F	-4	6	/	-0.5	-5	-1	0
Nc1c(Br)cc2c3c(cccc13)-c1ccccc1-2	-11	/	/	-11	-5	8	/
O=[N+]([O-])c1ccc(C2=NN(c3ccccc3)C(c3ccco3)C2)cc1 (centres undefined)	3	-22	18109*	-1.6	9	13	12
COC(/C=C/Nc1ccc(C)c(C)c1)=C(C#N)C#N	6	-30	10877	4.0	4	2	8
COc1ccc(Cl)cc1NC(=O)CCNC(=O)OCc1ccccc1	1	-9	2178	-2.3	12	7	-5
COc1ccc(NC(=O)c2cccnn2)cc1	-5	-13	3442	-1.0	-12	-1	-5
O=C(NCCc1ccccc1)N1c2ccccc2Sc2ccccc21	20	-65	3158	-3.0	/	/	-4
CCOC(=O)C1C(=O)CC(C)(O)C(C(=O)OCC)C1c1ccc(OCC)cc1 (centres undefined)	7	-2	8440	6.4	2	-2	2
NC(=O)Cn1nnc(-c2ccc(C(F)(F)F)cc2)n1	-3	-22	21710*	5.6	-3	-3	0
CCOC(=O)C(NC(=O)NCc1ccc(F)cc1)(OCC)C(F)(F)F (centres undefined)	1	-11	2096	10	8	7	-15
NNC(=O)CNC(c1ccccc1)c1cc(Br)ccc1NC(=O)c1ccccc1Br (centres undefined)	0	-25	3237	-0.7	2	3	-8
Nc1nnc(CC(=O)NN=Cc2ccccc2OCc2ccc(F)cc2)s1	2	/	/	8.9	6	-1	/
CC1(C(=O)NCCOc2ccccc2Cl)CC1(Cl)Cl (centres undefined)	0	-4	4067	-0.6	-2	16	11
COc1ccc2nc(-c3ccc(N)cc3)[nH]c2c1	-4	41	4073	4.4	/	/	5
Cc1nc2ccccc2cc1C(=O)NN=Cc1ccc([N+](=O)[O-])cc1	7	/	/	3.2	-3	9	/
Cc1ccc(-c2cc(C(F)F)nc(NCC3CCCO3)n2)cc1 (centres undefined)	-16	-28	10034	-2.5	-3	7	-25
CCN1CCN(S(=O)(=O)c2ccc(Br)s2)CC1	8	-18	9939	2.3	4	4	-4
CC(=O)Nc1ccc(NC(=O)C(C)OC(=O)C2CCN(S(=O)(=O)c3ccccc3C(F)(F)F)CC2)cc1 (centres undefined)	0	-5	/	0.8	1	7	/
O=C(CN1CCCC1=O)N1CCOCC1	-3	-27	9927	6.7	0	6	3
COc1ccc(C(CNC(=O)CN2C(=O)NC3(CC(C)CC(C)(C)C3)C2=O)N2CCOCC2)cc1 (centres undefined)	1	-20	9104	1.3	0	5	6
COc1cc(OC)cc(C(=O)NC(=S)Nc2ccc(NC(=O)c3ccco3)cc2)c1	-5	2	2474	0.5	-3	0	1
CCOC(=O)Cn1cnc2scc(-c3ccc(C)cc3)c2c1=O	7	-4	3066	-0.2	2	-3	-8
O=C(COC(=O)c1cc(S(=O)(=O)N2CCOCC2)ccc1Cl)NCc1ccco1	6	5	5652	5.1	7	0	-3
COc1ccc2c(c1)-c1nc(NC(=O)c3cccs3)sc1CC2	-28	-22	2524	-6.0	-8	9	3

A second format for part of the listing above:
Under each structure: ugtP null kill | PrP UTR inh | Bead autofluor | Sa RN4220 lethal | Mtb hypoxia inh | Mtb hypoxia inh growth | BJeLR viability
> CCOC(=O)C1C(=O)CC(C)(O)C(C(=O)OCC)C1c1ccc(OCC)cc1 (centres undefined)
 : 7 | -2 | 8440 | 6.4 | 2 | -2 | 2
> NC(=O)Cn1nnc(-c2ccc(C(F)(F)F)cc2)n1
 : -3 | -22 | 21710* | 5.6 | -3 | -3 | 0
> CCOC(=O)C(NC(=O)NCc1ccc(F)cc1)(OCC)C(F)(F)F (centres undefined)
 : 1 | -11 | 2096 | 10 | 8 | 7 | -15
> NNC(=O)CNC(c1ccccc1)c1cc(Br)ccc1NC(=O)c1ccccc1Br (centres undefined)
 : 0 | -25 | 3237 | -0.7 | 2 | 3 | -8

Rows are unselected, and some 4% of all compounds hit somewhere here.
